Insulin prom inh: TRM-6 insulin promoter activity inhibition; TRM-6 cells (human fetal islet line), insulin promoter-eGFP reporter, imaging; reporter expression induced with tamoxifen; 130,000 tested, 0.9% active; inhibition, % at 2 µM;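 active = inhibition above the mean plus 3 SD, with well images judged a real hit on visual review, cut at about 60% in these data, passing the limit was not always enough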
HSV augment: increases HSV replication in cells. HSV replication augmentation in cells, fold increase. maximum fold increase. 220,000 tested, 0.005% active;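 active = peak rise of 1.5-fold or more in the series; tested in PC3 cells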;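 note: first round at 10 µM; read as green reporter fluorescence; hits show the peak of a series up to 25 µM; 1 = signal of infected wells without compound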
GALR2 ag: GALR2 (human) receptor agonism | GALR2-expressing cells, agonist activation read-out | activation, %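 (tested at 5 µM)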 | 140,000 tested, 0.48% active;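 active = above mean plus 3 SD of all compounds, about 5% in these data, not always enough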;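 note: 0% = vehicle buffer wells and 100% = reference agonist at full effect; tested in CHO reporter cells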
Target sequence (O43603 whole entry, looked up): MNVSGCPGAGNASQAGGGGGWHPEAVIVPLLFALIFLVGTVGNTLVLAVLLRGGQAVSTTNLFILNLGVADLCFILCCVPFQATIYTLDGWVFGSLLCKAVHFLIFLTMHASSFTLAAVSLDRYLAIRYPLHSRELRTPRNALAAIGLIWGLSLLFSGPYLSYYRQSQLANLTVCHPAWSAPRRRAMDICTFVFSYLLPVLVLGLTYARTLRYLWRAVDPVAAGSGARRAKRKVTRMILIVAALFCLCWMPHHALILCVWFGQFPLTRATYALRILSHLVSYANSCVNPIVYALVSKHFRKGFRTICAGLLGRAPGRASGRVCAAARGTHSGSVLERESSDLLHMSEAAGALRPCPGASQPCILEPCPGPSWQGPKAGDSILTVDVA
PKD1 inh: inhibitors of human PKD1 kinase. Q15139. PKD1 kinase fluorescence polarization assay. inhibition, %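 (about 10 µM by stock and volumes)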. 200,000 tested, 0.056% active;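 active = inhibition of 50% or more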;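 note: controls were vehicle for no effect and a reference inhibitor for full effect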
RGS16-Gao: RGS16-Galphao interaction regulator (human) | O15492+P09471 | binding response (% of control), % at 10 µM | bead-based flow cytometry RGS16-Galphao binding, fluorescence; actives lie on both sides | 220,000 tested, 0.38% active | AID 1441;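 active = below 25% or above 175%, edge rows of some plates excepted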;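 note: Galphao activated by GDP with aluminum fluoride before binding; 100% = wells without compound and 0% = beads without RGS; some results beyond the cut were filed as inactive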
Target sequence (O15492 whole entry, looked up): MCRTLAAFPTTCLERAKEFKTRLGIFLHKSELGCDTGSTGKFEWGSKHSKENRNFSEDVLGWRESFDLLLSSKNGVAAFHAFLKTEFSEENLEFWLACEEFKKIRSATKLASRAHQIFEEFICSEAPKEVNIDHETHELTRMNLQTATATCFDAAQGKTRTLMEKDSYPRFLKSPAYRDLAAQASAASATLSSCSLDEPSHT
Target sequence (P09471 whole entry, looked up): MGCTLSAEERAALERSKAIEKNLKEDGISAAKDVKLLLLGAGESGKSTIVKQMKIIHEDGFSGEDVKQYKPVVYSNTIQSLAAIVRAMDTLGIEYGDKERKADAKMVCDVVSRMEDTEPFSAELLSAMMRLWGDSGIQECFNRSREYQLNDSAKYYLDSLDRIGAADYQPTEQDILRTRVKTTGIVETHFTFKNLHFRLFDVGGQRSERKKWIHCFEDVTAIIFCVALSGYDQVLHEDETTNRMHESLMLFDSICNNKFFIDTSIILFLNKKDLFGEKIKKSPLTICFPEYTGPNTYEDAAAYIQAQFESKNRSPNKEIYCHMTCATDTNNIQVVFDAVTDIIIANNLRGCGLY
Insulin prom inh cell count: also measured in Insulin prom inh; calls as there; normalized cell count, %; measured here: cell count, toxicity; reference of the scale not given here;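 cells exposed to compound for 48 h; stained nuclei by imaging scaled within each plate; lower means fewer cells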
HSV augment primary fold: second read-out of HSV augment, no call of its own (marks repeat the call); fold increase; compound at 10 µM; measured here: primary screen fold increase 10 uM; tested in PC3 cells;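 GFP signal in the first replicate; 1 = infected wells without compound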
* marks the source's active call; other numbers are inactive results; i = inactive; . = no result given.

SMILES	Insulin prom inh	Insulin prom inh cell count	HSV augment	HSV augment primary fold	GALR2 ag	PKD1 inh	RGS16-Gao
Cc1cc([N+](=O)[O-])nn1CC(=O)N1CCc2ccccc2C1	-21	87	i	0.96	-0.4	-6	79
O=C(CSc1cn(Cc2ccccc2)c2ccccc12)NCc1ccc(F)cc1	-30	99	i	0.89	0.1	1	176
C[n+]1cccc(C(=O)NNC(=O)C23CC4CC(CC(C4)C2)C3)c1	.	.	i	0.98	.	-1	97
COc1ccc(C(=O)N2CCN(C(C)=O)CC2)cc1S(=O)(=O)N1CCOCC1	45	32	i	1.1	.	-1	104
CC(=O)N=c1cccc(NC(C)=O)n1O	10	96	i	1.3	-0.1	2	98
COc1cc(/C=C(/NC(=O)c2ccccc2)C(=O)Nc2ccccc2)c([N+](=O)[O-])cc1OC	-75	88	.	.	-0.2	-5	93
CCOc1ccc(N(CC(=O)NCC2CCCO2)S(=O)(=O)c2ccc(SC)cc2)cc1 (stereo not given)	-59	180	i	1.1	-2.6	-3	101
Cc1cc(-c2nn(-c3ccccc3F)cc2CN2CCC(O)CC2)c(C)s1	.	.	i	0.9	.	-2	104
CCCn1c(N2CCN(Cc3ccc(Cl)cc3)CC2)nc2ccccc21	.	.	i	0.89	.	2	104
O=C(Oc1cccc2ccccc12)c1ccco1	.	.	i	1	0.4	0	107
CCn1c(SCc2nc3ccccc3s2)nnc1-c1ccccc1	-69	67	i	0.92	-0.6	2	102
O=c1oc2ccccc2nc1/C=C(O)/C=C/c1ccc(F)cc1	-14	83	i	1.1	-0.7	-7	101
c1ccn2c(Cc3nnc4ccccn34)nnc2c1	.	.	i	0.68	-3.0	1	106
Cc1ccc(N2CC(C(=O)N3CCc4ccccc43)CC2=O)cc1 (stereo not given)	.	.	i	1.1	-1.9	3	106
CS(=O)(=O)c1ccc(Cl)c(NC(=O)CSc2nc3ccccc3c(=O)n2CCCN2CCOCC2)c1	-19	75	i	0.93	-1.3	-20	132
Cc1cc(SCC(=O)c2ccccc2)n2ncc(-c3ccccc3)c2n1	.	.	i	0.91	.	.	103
O=C(C1CCCN(S(=O)(=O)c2ccccc2)C1)N1CCN(c2ncccn2)CC1 (stereo not given)	-16	61	i	1	0.7	-5	98
N#C/C(=C\c1ccco1)Sc1nc2ccccc2s1	27	52	i	1	-1.9	-5	106
O=C(CNC(=O)/C(=C\c1ccc(Br)cc1)NC(=O)c1ccccc1)OCc1ccccc1	.	.	i	0.91	-0.3	-2	96
COc1cc2c(cc1OC)-c1cc(Nc3ccc(N(C)C)cc3)nc(=O)n1CC2	.	.	i	0.81	.	.	94
CCOC(=O)c1c(NC(=O)COc2ncnc3ccccc23)sc(C)c1C	16	78	i	0.92	0.8	-1	51
c1ccc(C2Oc3ccccc3C3CC(c4cccs4)=NN32)cc1 (stereo not given)	.	.	i	1.2	-1.4	5	101
COC(=O)c1ccccc1NC(=O)N1CCN(C(=O)c2ccco2)CC1	11	112	.	.	-0.7	-2	94
O=C(NCc1ccccn1)c1ccc2c(=O)n(CCc3ccccc3)c(=O)[nH]c2c1	8	146	i	0.83	.	-5	98
O=C1CSC(c2ccccn2)N1c1cccc(Cl)c1 (stereo not given)	-26	74	i	0.86	-1.2	7	94
O=C(/C=C/c1ccco1)NC(=S)NNC(=O)c1ccco1	-403	93	i	1	-2.8	7	94
COc1cccc(-n2nnc3c(=O)n(CC(=O)NC4CCCC4)cnc32)c1	-36	80	i	0.85	-1.4	-3	97
Cc1ccccc1NC(=O)CCN1CCN(C/C=C/c2ccccc2)CC1	.	.	i	0.91	0.2	-4	104
CSc1nc2ccccc2n1C(=O)NC1CCCCC1	.	.	i	0.95	0.4	-4	102
O=C(c1ccccn1)N1CCN(c2ccc(C(F)(F)F)cn2)CC1	-44	176	i	0.82	-2.2	6	98

The last 5 compounds of the part before are carried over, then new ones follow:
SMILES	Insulin prom inh	Insulin prom inh cell count	HSV augment	HSV augment primary fold	GALR2 ag	PKD1 inh	RGS16-Gao
O=C(/C=C/c1ccco1)NC(=S)NNC(=O)c1ccco1	-403	93	i	1	-2.8	7	94
COc1cccc(-n2nnc3c(=O)n(CC(=O)NC4CCCC4)cnc32)c1	-36	80	i	0.85	-1.4	-3	97
Cc1ccccc1NC(=O)CCN1CCN(C/C=C/c2ccccc2)CC1	.	.	i	0.91	0.2	-4	104
CSc1nc2ccccc2n1C(=O)NC1CCCCC1	.	.	i	0.95	0.4	-4	102
O=C(c1ccccn1)N1CCN(c2ccc(C(F)(F)F)cn2)CC1	-44	176	i	0.82	-2.2	6	98
O=[N+]([O-])c1ccc(N=Nc2c(Cl)cc(O)cc2Cl)cc1	.	.	i	0.66	.	.	113
COc1cc(/C=N/NC(=S)NC2CC3CC2C2C=CCC32)ccc1O (stereo not given)	.	.	i	0.79	.	.	97
COc1ccccc1NC1C=CS(=O)(=O)C1 (stereo not given)	.	.	i	0.83	-2.4	-6	102
C=CCn1c(CCC(O)CCCCC)n[nH]c1=S (stereo not given)	-31	181	i	0.99	-0.5	6	103
COCCN(C(=O)CSc1nc2ccccc2c(=O)n1CC(C)C)c1c(N)n(Cc2ccccc2)c(=O)[nH]c1=O	.	.	i	0.94	.	-3	98
Cc1ccccc1NC(=O)Cn1c(C)nc2ccc(NC(=O)C3CC3)cc2c1=O	9	49	i	0.92	-1.4	-2	96
CC(C)N(C(=O)Cn1cnc2c(cnn2-c2ccccc2Cl)c1=O)C(C)C	26	75	i	0.89	-0.7	-11	109
COc1cc(NC(=O)c2ccccc2)cc(OC)c1	-13	105	i	0.82	-1.1	-14	104
O=C(CCC(=O)N1CCc2ccccc2C1)N1CCN(S(=O)(=O)c2ccccc2)CC1	0	133	i	0.85	-2.8	-15	102
CNC(=S)NNC(=O)c1c(C)nc2cc(C)ccn12	.	.	i	0.95	.	.	96
Cc1cc(C)c(S(=O)(=O)Cc2ccccc2)c(=O)[nH]1	.	.	i	0.84	.	1	100
Cc1cc(N)n2nc(C)c(-c3ccccc3)c2n1	30	111	i	0.96	-2.0	-5	101
Cc1ccc(S(=O)(=O)NCCCCCC(=O)Nc2ccccc2C)cc1	-38	95	i	0.85	-1.3	-3	102
CCCC1CC(C)(/C(C)=N\NC(N)=S)OC1=O (stereo not given)	.	.	i	1	.	-3	107
COc1ccc(-n2cnnc2SCC(=O)NC2CCS(=O)(=O)C2)cc1 (stereo not given)	14	83	i	0.99	-3.1	-2	103
COC(=O)c1ccc(/C(O)=C(\C#N)c2nc3ccccc3s2)cc1	.	.	i	0.96	-1.5	-1	105
COc1ccc(N(CC(=O)NCc2ccccc2C)S(=O)(=O)c2ccccc2[N+](=O)[O-])c(OC)c1	-61	74	i	0.94	.	3	99
COc1ccc(OC)c(C2CC(=O)NC(SC)=C2C#N)c1 (stereo not given)	.	.	i	0.91	-0.1	-5	103
CSc1sc(C(=O)NNC(C)=O)c2c1C1(CCC2)SCCS1	.	.	i	0.8	.	.	101
Cc1ccc(C)c(NC(=S)N/N=C2/CCCCc3ccccc32)c1	-55	135	i	0.9	-0.9	2	106
O=C(Nc1ccc2c(c1)OCO2)C1CCN(C(=O)c2ccc(Br)cc2)CC1	-95	82	i	1	.	-4	103
COc1ccc(-c2nnc(-c3cccs3)o2)cc1OC	-3	184	i	0.7	2.1	-4	121
CCOC(=O)c1c(C)n(C)c2ccc(OC(C)C(=O)OC)cc12 (stereo not given)	21	145	i	0.8	-3.2	-1	107
Cc1c(Br)c([N+](=O)[O-])nn1C(C)C(=O)Nc1ccc2c(c1)OCO2 (stereo not given)	.	.	i	0.93	-1.8	10	95
CCCCC(=O)Nc1ccc2c(c1)oc1ccccc12	-6	69	i	0.65	-1.9	-14	105
CC(CCc1ccccc1)NC(=O)c1ccc(C(=O)NC(C)CCc2ccccc2)cc1 (stereo not given)	17	97	.	.	-0.4	12	97
CCCN(CC1CC1)C(=O)CCc1nnc(CCc2c[nH]c3ccccc23)o1	.	.	i	0.89	.	-7	96
Cc1c(C2(c3c(C)n(C)n(-c4ccccc4)c3=O)C(=O)Nc3ccc(F)cc32)c(=O)n(-c2ccccc2)n1C	4	96	i	0.79	-2.2	-1	99
Cc1cc(C)c(S(=O)(=O)N2CCCCC2)c(C)c1N(C)S(=O)(=O)c1ccc(Cl)cc1	.	.	i	1.1	-1.9	-8	109
COc1ccccc1NC(=O)Nc1ccc(-n2ccc(C(F)(F)F)n2)cc1	.	.	i	0.89	.	.	100
COC(=O)NNC1=CC(=O)CC(C)(C)C1	.	.	i	1	.	0	109
CCOC(=O)N1C2=NC(C(=O)OC)=C(C(=O)OC)[C@@H]3Nc4ccccc4[C@]23C[C@H]1C(=O)OC	.	.	i	0.78	.	.	100
CCC(=O)Nc1ccc(S(=O)(=O)N2CCN(c3ccc(F)cc3)CC2)cc1	51	75	.	.	-3.1	0	104
N#CC1=CN(Cc2ccccc2)C=C(/C=N/Nc2ccccc2)C1	.	.	i	1.1	.	-8	97
CNc1cc(N2CCCCCC2)ccc1[N+](=O)[O-]	17	93	i	0.98	-1.8	3	102
Cc1c(NC(=O)c2ncn[nH]2)cccc1-c1nc2ccccc2s1	25	109	i	0.98	-2.8	0	97
CC(C)c1nnc(NC(=O)CCN2C(=O)c3ccccc3C2=O)s1	.	.	i	0.9	-3.8	-8	103
COc1ccccc1N1CCN(c2cc(N3CCCC3)nc(C)n2)CC1	0	83	i	0.94	-0.7	-9	104
CC(C)OC(=O)c1c(N)sc2c1CCCC2	60	117	.	.	-1.7	-1	.
CCc1nnc2sc(-c3ccc(NC(=O)c4ccco4)cc3)nn12	.	.	i	0.7	-0.1	-8	94
CN(C)c1ccc(-n2cc3c(=O)n(C)c(=O)n(C)c3c2)cc1	.	.	i	0.81	-1.5	-10	104
O=C(Cn1nc(-c2ccccc2)ccc1=O)NCC1CCCO1 (stereo not given)	-26	148	i	0.89	-2.3	-7	102
CC1CCC/C(=C\Nc2ccc(C(=O)O)cc2)C1=O (stereo not given)	.	.	i	1.1	.	16	75
CCOc1ccc(CN(Cc2ccco2)C(c2cccs2)c2nnnn2C(C)(C)C)cc1 (stereo not given)	.	.	i	1.1	-1.0	-3	104
Cc1ccc2occ(CN3CCN(c4ccccc4)CC3)c(=O)c2c1	-6	199	i	0.96	-1.4	0	106
CN(C)CCNc1cc(-c2ccncc2)nc2ccccc12	.	.	i	0.87	.	-2	101
O=[N+]([O-])c1cccc(-c2ccc(C(=S)N3CCN(c4ccc(F)cc4)CC3)o2)c1	8	107	.	.	-2.4	4	42
CCSC1=C(C#N)C(c2cccc(Br)c2)CC(=O)N1 (stereo not given)	-306	75	i	0.93	-0.9	6	103
CC(C)N(C(=O)Cn1cc(S(=O)(=O)CC(=O)NC2CCCCC2)c2ccccc21)C(C)C	.	.	i	0.93	.	8	97
O=C1C=CC(=O)N1c1ccc(O)cc1	.	.	i	1.1	.	.	96
C=CCn1c(=O)/c(=C2/SC(C)=C(C)N2CC)s/c1=C1/C(=O)N(CC)C(=S)N1c1ccccc1	0	74	.	.	-0.8	1	101
CCOC(=O)c1cc(-c2ccc(N3CCOCC3)cc2)nn1-c1ccccc1C(=O)O	.	.	i	1.2	.	.	105
Cc1ccnc(NC(=O)C2CCN(S(=O)(=O)c3cccc4nonc34)CC2)c1	.	.	i	1.1	-0.7	-11	105
CCOc1ccc(OCC)c(NC(=O)CN2CCN(C(=O)c3ccco3)CC2)c1	10	115	i	0.92	-1.3	-6	93
Cc1cc(-c2nc3ncccc3o2)ccc1NC(=S)NC(=O)c1ccco1	36	83	i	0.9	.	-2	97
CC1(c2nnc(-c3ccc(F)cc3)o2)CC(c2cccc(Cl)c2)=NO1 (stereo not given)	.	.	i	1.1	.	.	107
COc1ccc(OC)c2[nH]c(=O)c(CCNC(=O)C(C)(C)C)cc12	-43	94	i	0.91	-0.4	-5	96
C[N+](C)(CC#Cc1ccccc1)CC(=O)c1ccc(Cl)cc1	.	.	i	1	-1.1	-2	23*
CCOC(=O)c1c(C)[nH]c(N=Nc2ccc(C)cc2)c1C	26	58	i	0.82	-1.8	1	105
CCOC(=O)c1c(C)c(C(=O)Nc2cc(F)ccc2F)c(C)n1C	.	.	i	0.92	-0.6	-13	90
Cc1ccc(/C=N/N2CCN(Cc3ccc(C)cc3)CC2)cc1	.	.	i	0.9	.	.	103
O=C(c1ccccc1)c1ccc(OCC(O)CN2CCCC2)cc1 (stereo not given)	38	87	i	0.96	.	13	99

Bioassay records as filed in PubChem.
